# VACV E9 pol inh: inhibitors of vaccinia virus processive DNA synthesis (E9 polymerase); in vitro processive DNA synthesis, absorbance read-out; active compounds read low; some inactives read as strong as hits; normalized absorbance, % (concentration not given with the values); 46,000 compounds, 0.94% hits;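 active = replicate mean up to 90% and picked by the depositor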;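 note: 100% = median of the test wells of a plate; 100 nL library stock went into each well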
# Numbers without * were called inactive. Not all compounds are listed (hit frequency here may not be typical).
SMILES,VACV E9 pol inh
O=C(CSc1nnc(NC(=O)C2CCCCC2)s1)Nc1ccc(F)cc1,100.0
CCc1ccc(OCC(N)=O)cc1,99.3
CCOC(=O)C1=CN(Cc2ccc(F)cc2)C=C(C(=O)OCC)C1c1ccc(C(F)(F)F)cc1,109.7
S=C(Nc1cccnc1)N(CCc1ccccc1)Cc1ccccc1,98.9
O=C1CN(C(=O)C2CC2)C(c2ccccc2)c2cc(Cl)ccc2N1 (stereo unspecified),100.9
COc1ccccc1C(=O)COC(=O)Cc1ccccc1F,100.7
N#Cc1c(/N=C/c2c(O)n(Cc3ccco3)c(=O)[nH]c2=O)sc2c1CCCC2,97.7
CCCCN(C)c1sc(S(C)(=O)=O)nc1S(=O)(=O)c1ccc(C)cc1,100.9
Cc1cccc(NC(=O)NCc2nc(-c3cccc(C)c3)no2)c1,78.9
CCc1ccc2ncc(S(=O)(=O)c3ccccc3)c(N3CCCCC3)c2c1,99.1
COc1cccc(OCC(O)CN2CCN(c3ccc(F)cc3)CC2)c1 (stereo unspecified),100.6
CCN(CC)CCNc1ncnc2c1sc1nc(C(C)C)c3c(c12)CCCC3,96.0
COC(=O)C1=C(C)N(c2ccccc2Cl)C(=O)/C1=C\c1cccs1,100.5
S=C(NC1CCCCC1)N1CCn2cccc2C1c1cccs1 (stereo unspecified),98.1
CCc1ccccc1NC(=S)N(CCN(C)C)Cc1cccs1,108.2
CCc1ccc(CN(Cc2cn[nH]c2-c2ccc(OC)cc2)C(=O)Nc2ccc(C)cc2C)cc1,107.2
Cc1cc(C)c(-n2c(SCc3nc4ccccc4s3)n[nH]c2=O)c(C)c1,91.1
Cc1ccc(-c2noc(CN(C(=O)C(c3ccccc3)c3ccccc3)C(C)C)n2)cc1,101.3
NC(=O)c1cc2ccccc2oc1=Nc1ccccc1,100.4
O=C(CN1CCc2ccccc21)N1CCCc2ccccc21,109.6
O=C(Cn1c(=O)oc2cc(S(=O)(=O)NCc3ccccc3)ccc21)NC1CCCCC1,98.6
CC(C)CN(CC(C)C)C(=O)c1cc2c(Cl)nc3ccccc3c2s1,97.1
CSc1nsc(SC)c1C(=O)NC(=O)N1CCSCC1,100.5
CCCn1c(CCC(=O)N2CCc3ccccc32)nc2cccnc21,99.5
CC(/C=C1\SC(=S)N(CC(=O)Nc2ccccn2)C1=O)=C\c1ccccc1,97.8
N#CC(C#N)=C(N)SCc1ccccc1,115.0
Cc1ccc(N2C(=O)C(N3C(=O)c4ccccc4C3=O)C2c2ccc(N(C)C)cc2)cc1Cl (stereo unspecified),99.7
O=C(O)CCC(=O)Nc1cccc(O)c1,100.0
Oc1ccccc1/C=N/c1ncc(C(F)(F)F)cc1Cl,100.1
N#Cc1cn(-c2ccccc2)nc1-c1cc2ccccc2oc1=O,101.0
CCN(CC)c1ccc(/C=c2\sc3ncnn3c2=O)cc1,99.9
CN1C/C(=C/c2cccc3ccccc23)C(=O)/C(=C/c2ccc3ccccc3c2)C1,92.3
COc1ccc(C2CC(=O)C3=C(C2)Nc2ccccc2N(C(C)=O)C3c2ccccc2)cc1 (stereo unspecified),99.9
CC1(C)CC(=O)C2=C(C1)Nc1ncnn1C2c1ccncc1 (stereo unspecified),102.6
OCc1nc(CO)n(Cc2ccccc2)n1,102.9
O=c1cc(-c2ccccc2)sc(=O)[nH]1,98.9
CN(Cc1ccccc1)c1nc2c(c(=O)n(C)c(=O)n2C)n1CCSc1nc2ccccc2o1,96.0
Cc1oc(-c2cccc(Cl)c2)nc1CS(=O)(=O)CC(=O)NCc1ccccc1,100.2
O=C(CCS(=O)(=O)c1cccs1)NC1CCCc2ccccc21 (stereo unspecified),96.5
CC(=O)NCCn1c(C)cc2ccccc21,100.9
CCC(=O)c1cc(C)ccc1O,100.7
CCC(=O)NC(Nc1sc2c(c1C(N)=O)CCCC2)(C(F)(F)F)C(F)(F)F,99.7
CCN(c1ccccc1)S(=O)(=O)c1ccc(C)cc1,100.7
CCc1ccc(NS(=O)(=O)c2ccc(OC)cc2)cc1,99.1
O=C(O)CSc1nnc2c(n1)OC1(CCCC1)Nc1ccccc1-2,99.9
Cc1cc(C)cc(CC(CC(=O)O)C(=O)NCc2ccccc2)c1 (stereo unspecified),100.0
c1csc(-c2ccnc3nc(-n4cccc4)nn23)c1,101.3
NC1=NC(c2ccccc2)N2C(=N1)Sc1ccccc12 (stereo unspecified),107.5
CCc1cc(C(=O)Cc2nc3ccccc3n2C)c(O)cc1O,106.3
O=C1ON=C(c2cccs2)/C1=C/C=C/c1ccccc1,100.4
CCN1CCCC1CNC(=O)C(NC(=O)c1ccc(C23CC4CC(CC(C4)C2)C3)cc1)C(C)C (stereo unspecified),99.8
COC(=O)c1ccccc1NC(=O)C12CC3CC(CC(C3)C1)C2,99.6
CC(C)C[C@H](NC(=O)[C@@H](O)[C@H](N)Cc1ccccc1)C(=O)O,98.3
O=C(Nc1cccc(Cl)c1)c1ccc(Cl)cc1,100.1
O=C(CC1CC2CCC1C2)NCc1ccc(F)cc1 (stereo unspecified),88.9
COc1ccc(C2C(C(=O)/C=C/c3ccccc3)=C(O)C(=O)N2CCO)cc1 (stereo unspecified),100.6
CCOC(=O)c1c(C)n(CC)c2cc(Br)c(OC)cc12,107.4
CCOC(=O)c1sc(NC(=O)c2cccc(OC)c2)nc1-c1ccccc1,102.6
COc1ccc(OC)c(N2C(=O)C=CC2=O)c1,92.1
Cc1cccc(-n2ccnc2SCC(=O)N2CCc3ccccc32)c1,104.5

# Going on with the list.
SMILES,VACV E9 pol inh
O=C(Nc1cccc(C(F)(F)F)c1)c1ccco1,100.2
NC(Cc1cccc2nsnc12)C(=O)O (stereo unspecified),98.2
Cc1cc(C)n(-c2ncnc3sc4c(c23)CC(C)CC4)n1 (stereo unspecified),99.2
CC1(C)Cc2c(sc3nc(NN)n(Cc4ccccc4)c(=O)c23)CO1,98.4
O=C(c1ccc(Oc2ccccc2)cc1)c1nc2c(n1O)CCCC2,101.5
Cc1nnc(NC(=O)CCn2c(=O)sc3ccccc32)s1,99.9
Cc1nc(C(=O)Nc2ccc(Cl)cc2)sc1C(=O)Nc1ccc(Cl)cc1,99.0
Cc1cc2cc(CNC(=O)c3ccc(S(=O)(=O)N(C)C)cc3)ccc2n1C,100.7
CC(=O)Nc1ncc(Cc2ccc(C)cc2)s1,100.3
O=C(CSc1ccc2ccccc2c1)N1CCN(c2ccc(O)cc2)CC1,93.9
CCn1cc(SCC(=O)Nc2ccccc2)c2ccccc21,98.7
Oc1cccc2cccnc12,99.5
O=C(c1ccco1)N1CCC(c2ccccc2)C1 (stereo unspecified),100.9
Cc1ccc(OCC(=O)Oc2ccccn2)cc1,100.2
COC(=O)c1ccc(/C=N/n2cnnc2)cc1,105.9
Cc1ccc2c(c1)nnn2CNc1ccc(OC(F)(F)F)cc1,98.1
CCc1ccc(OC(=O)CN2C(=O)c3ccccc3C2=O)cc1,100.0
CCOc1ccccc1C(=O)N1c2ccccc2Sc2ccccc21,100.1
CCOC(=O)c1[nH]c2ccc(OCC)cc2c1CCCN1C(=O)c2ccccc2C1=O,100.5
CC(C)Cc1ccc(S(=O)(=O)N2CC(C)CC(C)C2)cc1 (stereo unspecified),98.4
CC1(C)C=C(C(N)=O)C(C)(C)N1OC(=O)c1ccco1,96.0
O=C(CC(c1ccc(Cl)cc1)S(=O)(=O)c1ccccc1)c1cccs1 (stereo unspecified),99.6
O=C(O)CSc1nnc(-c2cccs2)n1-c1cccc(C(F)(F)F)c1,86.3
CCN=C(Nc1ccc(C(C)(C)C)cc1)SCC1CC1,109.4
CCOC(=O)c1sc(COc2ccc(C(C)(C)C)cc2)nc1C,101.6
NCc1ccc2[nH]c3c(c2c1)CCCC3,90.4
CCCNC(=O)c1cc(C(C)C)on1,100.5
Cc1ccc2c(c1)c1c(n2CCC#N)CC[N+](C)(C)C1,106.6
O=c1oc2ccccc2c(O)c1/C=N/N1CCOCC1,98.9
Cc1nn(C(C)C(=O)N(C)Cc2ccccc2)c(=O)c2c1sc1ccccc12 (stereo unspecified),102.5
CCNS(=O)(=O)c1ccc(OC)c2ncccc12,106.4
c1ccc2c(c1)nc(NCC1CCCO1)c1nnnn12 (stereo unspecified),102.0
O=C(O)c1ccc(-c2ccccc2)o1,77.5
COc1cc2c3c(c1O)-c1c(cccc1OC)CC3[N+](C)(C)CC2 (stereo unspecified),100.1
CC(CNCc1ccc2c(c1)OCO2)NCc1ccc2c(c1)OCO2 (stereo unspecified),100.5
CC(C)(C)c1nc(-c2ccc(-c3ccon3)s2)no1,95.3
COC(=O)CCNc1ccc2c(c1)OCCO2,103.2
COc1ccc(-c2c(C(=O)O)c3cc(OC)c(OC)cc3c(=O)n2C)cc1O,98.5
CCOC(=O)c1cnc(COc2ccc(C(C)(C)C)cc2)[nH]c1=O,100.5
Cc1nnc(C)n1/N=C/c1cc(Br)cc(Br)c1O,94.0
CN(C)c1cc[n+](C(=O)N2CCOCC2)cc1,97.8
O=C(NCc1ccccc1)c1noc2c1CCc1ccccc1-2,94.2
COC(=O)/C(=C/c1c[nH]c2ccccc12)NC(C)=O,100.0
O=C(O)c1ccccc1N(Cc1ccccc1)C(=O)COc1ccccc1,93.9
O=c1c2ccccc2n2c(=O)[nH]nc2n1Cc1ccc(F)cc1,96.8
Cc1cc(Br)ccc1SCC(=O)OCC(=O)NC1CC1,102.2
CCOC(=O)c1cc(NC(=O)CC(C)(C)CC(=O)O)ccc1N1CCCCC1,98.9
CC1CC(C)CN(C(=O)COC(=O)c2cc(Cl)cc(Cl)c2)C1 (stereo unspecified),95.2
CC(NC(=O)COc1ccc(C#N)cc1)C1CC2CCC1C2 (stereo unspecified),101.2
CCn1c2ccccc2c2cc(/C=C3\CCC(C4CCCC4)C3=O)ccc21 (stereo unspecified),105.5
Clc1ccc(NCc2ccccc2)cc1,100.1
O=C1CC(C2CCCO2)C(=O)N1c1cccc(C(F)(F)F)c1 (stereo unspecified),99.9
CCCN(CCC)C(=O)CSc1nnc(-c2cc3sccc3n2C)n1-c1c(C)cc(C)cc1C,117.9
CN1C2CCC1CC(NC(=O)CSCc1ccc(Cl)cc1)C2 (stereo unspecified),91.4
CCOc1ccc(C2C(C#N)=C(N)Oc3c2ccc(=O)c2c(C)oc(C)c32)cc1 (stereo unspecified),103.2
O/N=C/c1cn(-c2ccccc2)nc1-c1cccs1,95.7
CC(=O)Nc1ccc(NC(=O)C2(c3ccccc3)CCCC2)cc1,99.6
c1nc(N2CCCC2)c2[nH]cnc2n1,101.0
Cc1[nH]c2ccccc2c1C1=CCN(S(=O)(=O)c2ccccc2)CC1,103.5
CCOc1ccccc1NC(=O)CSc1nc2nccnc2c(=O)n1Cc1ccc2c(c1)OCO2,99.5

# 14 entries from above, reformatted:
SMILES	VACV E9 pol inh
Cc1ccc2c(c1)nnn2CNc1ccc(OC(F)(F)F)cc1	98.1
N#Cc1cn(-c2ccccc2)nc1-c1cc2ccccc2oc1=O	101.0
CC1(C)Cc2c(sc3nc(NN)n(Cc4ccccc4)c(=O)c23)CO1	98.4
Cc1cccc(-n2ccnc2SCC(=O)N2CCc3ccccc32)c1	104.5
CCOc1ccccc1NC(=O)CSc1nc2nccnc2c(=O)n1Cc1ccc2c(c1)OCO2	99.5
CC(/C=C1\SC(=S)N(CC(=O)Nc2ccccn2)C1=O)=C\c1ccccc1	97.8
O=C(O)CCC(=O)Nc1cccc(O)c1	100.0
CC(=O)Nc1ncc(Cc2ccc(C)cc2)s1	100.3
CN(Cc1ccccc1)c1nc2c(c(=O)n(C)c(=O)n2C)n1CCSc1nc2ccccc2o1	96.0
Cc1cccc(NC(=O)NCc2nc(-c3cccc(C)c3)no2)c1	78.9
CCc1ccc2ncc(S(=O)(=O)c3ccccc3)c(N3CCCCC3)c2c1	99.1
CN(C)c1cc[n+](C(=O)N2CCOCC2)cc1	97.8
CN1C/C(=C/c2cccc3ccccc23)C(=O)/C(=C/c2ccc3ccccc3c2)C1	92.3
O=C(CCS(=O)(=O)c1cccs1)NC1CCCc2ccccc21 (stereo unspecified)	96.5

# Other entries:
SMILES,VACV E9 pol inh
CCCC(=O)Nc1nc2c(s1)CC(C)CC2 (stereo unspecified),94.6
COc1ccc(CC(=O)n2nc(-c3ccc(Cl)cc3)nc2NCc2ccco2)cc1OC,109.9
CCN1C(=O)/C(=C2\SC(=S)N(c3ccc(OC)cc3)C2=O)c2ccccc21,100.1
O=C(Nc1scc2c1c(=O)oc1ccccc12)c1ccccc1,88.8
CCN(CC)CCNc1ncnc2c1cnn2-c1ccccc1,99.8
O=C(Nc1ccccc1Cl)c1nc2c(nnn2Cc2ccc3c(c2)OCO3)c(=O)[nH]1,104.0
O=C(Nc1cccc(NC(=O)c2c(F)cccc2F)n1)c1c(F)cccc1F,105.9
O=c1ncn(-c2cccc(Cl)n2)[nH]1,102.7
Clc1ccc(-c2csnn2)cc1,96.5
Cc1ccc(NC(=O)Cn2c(=O)c(C)nc3ccccc32)cc1,97.7
Cc1ccc(OCC(=O)Nc2ccccc2C(N)=O)cc1,98.8
CSC(=Nc1ccc(C)c(C)c1)NC#N,100.1
CN(CC(=O)NCc1ccccc1)S(=O)(=O)c1ccc2c(c1)c(=O)n(C)c(=O)n2C,104.7
O=C1c2ccccc2CN1CCSC(=S)N1CCSCC1,89.5
CCOC(=O)c1c(-c2ccccc2)c[nH]c1N,95.1
COc1ccc(OC)c(C2SCCN2C(=O)c2cc3ccccc3oc2=O)c1 (stereo unspecified),100.2
Cc1cc(C)c(C#N)c(SCC(=O)Nc2nsc(-c3ccc(Cl)cc3)n2)n1,96.4
CC(C)(C)Oc1ccc(C(=O)N(Cc2ccc(F)cc2)C2CCOC(C)(C)C2)cc1 (stereo unspecified),83.5
CC(C)C(C(=O)O)c1ccc(Cl)cc1 (stereo unspecified),92.7
CC(C)CCNC(=O)c1ccc2c(Cl)c3c(nc2c1)CCCC3,94.7
Cc1cccc(C)c1N1CCN(Cc2ccc(Cl)nc2)CC1,90.7
CCCn1c(/N=C/c2c[nH]c3ccccc23)nc2ccccc21,99.6
N#CCC(=O)NCc1ccccc1,107.1
COc1ccc(Nc2nc3ccccc3c(=O)s2)cc1,100.2
COc1ccc(Br)cc1S(=O)(=O)n1ccnc1C(C)C,100.3
CCc1ccc(N=C2N=C(N)c3ccccc32)cc1,99.2
O=C(Nc1ccc2nn(-c3ccccc3)nc2c1)C(c1ccccc1)c1ccccc1,99.5

# Screens (PubChem)
